CtBP-E1A blk – inhibitors of CtBP/E1A interaction | AlphaScreen GST-E1A/His-CtBP binding, 1536-well; hits give low values; control for the full effect not named in the record | activity change, % (test concentration not listed) | actives 0.49% (n = 340,000) | AID 651724; in the data active means activity change below about -65%; inconclusive means about -30% to -65%; inactive means above about -30%; further: on the % scale 0 is the no-effect control and ±100 the full control effect; compound concentration not given in the record
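Protein mix (5X: 125 nM each GST-E1A, His-CtBP) was incubated with pinned compound 2 h at 37 deg C in dark, in 50 mM Tris pH 8.0 buffer with 300 mM NaCl. Glutathione donor and nickel acceptor beads followed; AlphaScreen signal read after 1 h.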
TRPV1 PAM – potentiators of human vanilloid receptor 1 (TRPV1) | Q8NER1 | TRPV1-expressing cells, Fluo-8 calcium influx, capsaicin EC20 potentiation; host cell line not named in the record; control for the full effect not named in the record | potentiation, % at 8.33 µM | actives 0.02% (n = 320,000) | AID 540277; active means potentiation above 80%; inconclusive means 30% to 80%; inactive means below 30%; further: 0% is about no effect
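TRPV1-expressing cells were cultured overnight at 35.5C and loaded with Fluo-8 calcium dye for 40 to 90 min at room temperature. After a 10 s baseline, compound was added and calcium influx was read kinetically for 3 min (ex 480/em 520 nm).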
D2 PAM – potentiates the human D2 dopamine receptor allosterically; P14416; DiscoveRx D2 beta-arrestin cells, luminescence, 90 min; 100% = 57 uM dopamine signal; actives 0.23% (n = 360,000); potentiation, % (no concentration beside the values); active = potentiation of 50% or more; inconclusive = 30% to 50%; inactive = 30% or less;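 further: compound concentration not given in the record; tested on top of an EC20 dose of dopamine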
Target sequence (P14416 whole entry, looked up): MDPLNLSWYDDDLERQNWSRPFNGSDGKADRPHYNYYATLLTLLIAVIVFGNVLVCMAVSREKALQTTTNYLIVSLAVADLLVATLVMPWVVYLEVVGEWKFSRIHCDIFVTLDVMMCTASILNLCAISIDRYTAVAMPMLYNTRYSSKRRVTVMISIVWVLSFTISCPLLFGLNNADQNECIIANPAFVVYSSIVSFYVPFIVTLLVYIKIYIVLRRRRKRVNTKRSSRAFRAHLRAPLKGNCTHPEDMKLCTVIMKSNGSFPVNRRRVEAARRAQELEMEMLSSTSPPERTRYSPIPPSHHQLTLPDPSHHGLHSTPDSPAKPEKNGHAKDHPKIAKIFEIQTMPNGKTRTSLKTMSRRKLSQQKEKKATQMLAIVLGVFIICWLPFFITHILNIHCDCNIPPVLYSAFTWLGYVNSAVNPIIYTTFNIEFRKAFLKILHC
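D2 cells co-treated with compound plus 50 nM dopamine (EC20) for 90 min at 37 deg C to detect potentiation. Beta-arrestin recruitment was read as enzyme-fragment luminescence after 1 h at ambient temperature. Full response was set by 57 uM dopamine.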
D2 ag – human D2 receptor agonism in beta-arrestin assay. P14416. activation, % (concentration not given with the values). DiscoveRx PathHunter D2 beta-arrestin, luminescence, 90 min; 100% = 57 uM dopamine signal. actives 0.084% (n = 360,000); in the data active = activation above about 40%; inconclusive = about 15% to 40%; inactive = below about 15%; further: compound concentration not given in the record; the text of the record calls up to 30% inactive
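DiscoveRx PathHunter D2 beta-arrestin cells (2,100/well) attached overnight, then compound-stimulated 90 min at 37 C in HBSS/10 mM HEPES/0.1% Tween-20 buffer; beta-galactosidase complementation read by luminescence after 1 h at ambient temperature. Dopamine 57 uM final (EC100) as control.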
Six1-Eya2 blk – blocks human Six1 binding to Eya2 | Q15475+O00167 | AlphaScreen GST-Six1/His-Eya2 binding, biochemical; hits give low values; control for the full effect not named in the record | activity change, % (no concentration beside the values) | actives 0.56% (n = 360,000) | AID 651725; in the data active = activity change below about -65%; inconclusive = about -30% to -65%; inactive = above about -30%; further: on the % scale 0 is the no-effect control and ±100 the full control effect; compound concentration not given in the record
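Compounds are tested against tagged Six1 and Eya2 proteins bridged by glutathione donor and nickel acceptor beads; after a one-hour incubation at 37 °C without light, AlphaScreen emission is recorded.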
Sfp PPTase inh – inhibitors of Bacillus subtilis Sfp phosphopantetheinyl transferase; Q9F4F7; Biochemical Sfp PPTase activity, qHTS; Potency, µM, for the others: max response, negative = inhibition, usual class: inhibitors; actives 3.5% (n = 310,000); active means well fitted inhibition curve with a large enough effect; inconclusive means small, poorly fitted or top-dose-only effect, or another doubt; inactive means no such curve, though single readings can be large or run the other way;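 further: the enzyme is Sfp with the accession as filed and its product quenches rhodamine fluorescence; potency means the concentration at half of the fitted maximal effect; 0% = enzyme reaction without inhibitor and -100% = no enzyme wells; top concentration of the series not given in the record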
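Fluorescence-quenching assay: 15 nM Sfp-PPTase preincubated 15 min at room temperature with compound, then 5 uM rhodamine-CoA and 12.5 uM BHQ-2-labelled YbbR peptide added. Fluorescence (ex 525/em 598 nm) read at start and after 30 min; difference gives rate.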
PINK1 expr mod – modulators of PINK1 expression; Potency, µM (doses to about 76.6 µM), for the others: at the highest dose activation (PINK1 increase), hits mostly activators; actives 0.2% (n = 410,000); PINK1 immunofluorescence, high-content cytometry, 24 h; active = well fitted activation curve with a large enough effect; inconclusive = small, poorly fitted or top-dose-only effect; inactive = flat fitted curve, though single readings scatter; cell line not stated here;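 further: potency means the concentration at half of the fitted maximal effect; % of control where 0% means no effect; nearly all actives have a fitted effect of over 65% in size; a mitochondrial uncoupler was the plate control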
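Compound titrations (5 concentrations, 24 h) on a stable cell line; DMSO and CCCP controls. Endpoint: fixed-cell PINK1 immunofluorescence with mitochondrial, cell and nuclear markers, scanned by microplate cytometer.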
* marks the source's active call; other numbers are inactive results; ? = inconclusive; · = not tested or not shown; & = joins results of further samples; [ ] = remark or other dose.

The opening 12 records, ahead of the listing:
SMILES	CtBP-E1A blk	TRPV1 PAM	D2 PAM	D2 ag	Six1-Eya2 blk	Sfp PPTase inh	PINK1 expr mod
[O-][n+]1onc2c1CCc1nnc(-c3ccccc3)cc1-2	-2	-15	-19	-5.8	-13	0%	1.8%
COc1cccc(CN2CCN(Cc3ccc(O)c(OC)c3)CC2CCO)c1 (stereo not drawn)	-1	-2	-18	-5.0	5	24%	0.8%
COC(=O)c1ccc(CSc2nnc(-c3ccncc3)n2Cc2ccccc2)o1	-4	-6	-6	-5.1	-11	-7%	-0.7%
COc1ccc(Cl)cc1NC(=O)CN(C)C(=O)C1CC1	1	·	0	2.6	0	·	-2.1%
Cc1cccc(C)c1NC(=O)NCCCN1CCN(c2ccccc2)CC1	8	0	-12	?	4	14%	0.7%&-0.7%
COc1ccc(C2Nc3ccccc3NC3=C2C(=O)CC(C)(C)C3)cc1OC (stereo not drawn)	3	-1	-6	7.9	6	28%	1.9%
COC(=O)c1cc(S(=O)(=O)N2CCCCC2)c[nH]1	·	-4	-5	-1.0	5	17%	-0.6%
COc1ccc(NS(=O)(=O)c2ccc(OC)c(NC(=O)CCC3CCCCC3)c2)cc1	0	12	-7	-2.5	-5	-6%	4.7%
COc1ccc([N+](=O)[O-])cc1NC(=O)c1ccco1	5	-22	-3	-10	-4	4%	2.2%
COc1cccc(CN2C(=O)c3ccccc3C2C(=O)NCC2CCCO2)c1 (stereo not drawn)	-2	-5	-7	-0.6	7	4%	-0.4%
CCC(C)NCCOCCOc1ccc(Cl)c2ccccc12 (stereo not drawn)	-5	7	-33	-6.1	-4	20µM*	-1.9%
CCCCOP(=O)(OCCCC)C(O)c1ccc(Br)cc1 (stereo not drawn)	8	-11	-7	-1.6	0	0%	8.0%

The list itself, previewed entries included:
SMILES	CtBP-E1A blk	TRPV1 PAM	D2 PAM	D2 ag	Six1-Eya2 blk	Sfp PPTase inh	PINK1 expr mod
[O-][n+]1onc2c1CCc1nnc(-c3ccccc3)cc1-2	-2	-15	-19	-5.8	-13	0%	1.8%
COc1cccc(CN2CCN(Cc3ccc(O)c(OC)c3)CC2CCO)c1 (stereo not drawn)	-1	-2	-18	-5.0	5	24%	0.8%
COC(=O)c1ccc(CSc2nnc(-c3ccncc3)n2Cc2ccccc2)o1	-4	-6	-6	-5.1	-11	-7%	-0.7%
COc1ccc(Cl)cc1NC(=O)CN(C)C(=O)C1CC1	1	·	0	2.6	0	·	-2.1%
Cc1cccc(C)c1NC(=O)NCCCN1CCN(c2ccccc2)CC1	8	0	-12	?	4	14%	0.7%&-0.7%
COc1ccc(C2Nc3ccccc3NC3=C2C(=O)CC(C)(C)C3)cc1OC (stereo not drawn)	3	-1	-6	7.9	6	28%	1.9%
COC(=O)c1cc(S(=O)(=O)N2CCCCC2)c[nH]1	·	-4	-5	-1.0	5	17%	-0.6%
COc1ccc(NS(=O)(=O)c2ccc(OC)c(NC(=O)CCC3CCCCC3)c2)cc1	0	12	-7	-2.5	-5	-6%	4.7%
COc1ccc([N+](=O)[O-])cc1NC(=O)c1ccco1	5	-22	-3	-10	-4	4%	2.2%
COc1cccc(CN2C(=O)c3ccccc3C2C(=O)NCC2CCCO2)c1 (stereo not drawn)	-2	-5	-7	-0.6	7	4%	-0.4%
CCC(C)NCCOCCOc1ccc(Cl)c2ccccc12 (stereo not drawn)	-5	7	-33	-6.1	-4	20µM*	-1.9%
CCCCOP(=O)(OCCCC)C(O)c1ccc(Br)cc1 (stereo not drawn)	8	-11	-7	-1.6	0	0%	8.0%
c1coc(-c2ccnc(-n3cccc3)n2)c1	4	7	-4	-2.3	-5	14%	8.9%
COc1cc(C2C(C(=O)Nc3ccc(F)cc3)=C(C)Nc3nc(CCCO)nn32)cc(OC)c1OC (stereo not drawn)	5	2	-3	2.4	0	9%	1.2%
Cc1nnc(Sc2cc(NCCO)c([N+](=O)[O-])c3nonc23)s1	-11	0	-36	-3.7	?	6.3µM*	6.9%

One compound at a time (already shown). Order of screens: CtBP-E1A blk, TRPV1 PAM, D2 PAM, D2 ag, Six1-Eya2 blk, Sfp PPTase inh, PINK1 expr mod
c1coc(-c2ccnc(-n3cccc3)n2)c1 across the screens: 4, 7, -4, -2.3, -5, 14%, 8.9%
Cc1cccc(C)c1NC(=O)NCCCN1CCN(c2ccccc2)CC1 across the screens: 8, 0, -12, ?, 4, 14%, 0.7%&-0.7%

The results go on.
SMILES	CtBP-E1A blk	TRPV1 PAM	D2 PAM	D2 ag	Six1-Eya2 blk	Sfp PPTase inh	PINK1 expr mod
COc1ccc2ncc(S(=O)(=O)c3ccccc3)c(N3CCN(c4ccccc4)CC3)c2c1	-29	1	-15	-2.7	?	0%	1.3%
O=C(CSc1ccc2nnc(CCNC(=O)c3ccccc3)n2n1)Nc1ccccc1F	5	0	-2	-1.3	2	8%	1.0%
O=C(NCCOc1ccccc1)C1Nc2ccc(C(F)(F)F)cc2C2c3ccccc3CC12 (stereo not drawn)	·	·	-11	-3.1	1	·	7.6%
Cc1ccc(N(Cc2ccccc2)C(=O)Cc2ccc(S(=O)(=O)N3CCOCC3)s2)cc1	5	-18	-19	-8.6	-12	·	1.7%
COc1ccccc1N1CCN(/N=C(\C)c2ccc(O)cc2)CC1	3	?	-18	-4.2	-8	8%	4.9%
COc1ccc(-c2nnc3ccc(SCC(=O)NCC4CCCO4)nn23)cc1 (stereo not drawn)	4	-12	-6	-2.6	1	18%	9.6%[38.3 µM]
CC1(OC(=O)C2CCCC2)C(=O)C=C2C=C(c3ccsc3)N(CCCCO)C=C2C1=O (stereo not drawn)	-4	-18	0	2.3	-10	-11%&1%	1.3%
Cc1ccc(OCCOCCOc2cccc3cccnc23)c(Br)c1	-11	19	-1	0.5	-8	-8%	4.4%
CN(Cc1ccc(Cl)cc1Cl)C(=O)c1cccc(S(=O)(=O)NCc2ccccc2)c1	-3	·	1	1.2	-3	·	3.4%
COC(=O)C1C(=O)C=C(Nc2ccc(F)cc2F)CC1c1ccccc1 (stereo not drawn)	1	-5	-6	-1.0	4	9%	5.9%
Cc1ccc([N+](=O)[O-])cc1NC(=O)CSc1nncn1-c1ccccn1	3	16	-1	2.7	7	8%	4.5%
O=C(NCCCSc1ccccc1)c1ccc(=O)[nH]c1	-4	-8	-11	-6.9	1	10%	0.3%
Cc1ccc(-c2cc(C(F)(F)F)c(C#N)c(SCC(=O)O)n2)cc1	-8	-4	-12	-2.7	6	-3%	-0.5%&-0.2%
O=C(Nc1ccn(Cc2ccccc2F)n1)c1ccc(COc2cc(Cl)ccc2Cl)o1	7	6	-15	-2.9	-2	7%	-1.3%[38.3 µM]
O=C(Nc1nc2c(ccc3ccccc32)s1)c1ccco1	0	-7	2	-1.0	7	-12%	11%
Cc1cccc(S(=O)(=O)N(C)C[C@@H]2OCc3cn(nn3)CCCC(=O)N([C@@H](C)CO)C[C@H]2C)c1	1	·	·	1.1	-2	·	0.8%
Cc1nn(-c2ccccc2)c(C)c1C(=O)NCc1cccs1	12	4	3	-1.8	4	23%	2.5%
CN(CC1COc2ccccc2O1)C(=O)CSc1ncccn1 (stereo not drawn)	0	·	-10	-0.8	10	·	0.9%
CCOC(=O)CCC(NC(=O)c1ccccc1C(=O)NC(CCC(=O)OCC)C(=O)OCC)C(=O)OCC (stereo not drawn)	-2	0	0	-0.1	5	20%	-2.2%
CC1(C)C2CCC(C2)C1(C)NC(=O)CNC1CCCCC1 (stereo not drawn)	-7	-8	-20	-4.3	2	-7%	2.8%
COc1ccc(Cl)cc1NC(=O)C[n+]1cccc(C)c1	·	-3	-13	-2.0	4	9%	-0.4%
CC(C)=CCC/C(C)=C/CNC(=O)CC1C[C@H](C(=O)N2CCCCC2)[C@@]2(C)c3[nH]c4ccccc4c3CCN2C1=O (stereo partly drawn)	4	·	·	-0.2	0	·	3.4%
CN(Cc1nc(C(c2ccccc2)c2ccccc2)no1)CC1COCCO1 (stereo not drawn)	·	0	-3	-0.8	10	2%	-0.4%
Cc1ccc(S(=O)(=O)N2CCCC2C(=O)NC2=NCCS2)cc1 (stereo not drawn)	5	-9	10	-2.0	5	13%	-1.0%
CCOc1ccc(NC(=O)CCNS(=O)(=O)c2cccc3nsnc23)cc1	6	-6	0	-1.8	5	8%	0.6%&0.0%
COc1cc(/C=N/n2c(C3CCCCC3)n[nH]c2=S)ccc1O	·	0	-16	0.8	-22	?	0.8%
Cc1ccc(C(=O)NCC(=O)NC2CCCCCC2)cc1	0	15	-5	1.3	13	4%	-0.1%
COc1ccc(OC)c(S(=O)(=O)N2CCCCCC2)c1	-3	-13	-2	0.2	16	5%	-1.8%
CC(NC(=O)c1cc2cc(Br)ccc2oc1=N)c1ccccc1 (stereo not drawn)	13	-17	3	1.3	-2	-24%	6.1%
COc1ccccc1/C=C/c1nc(C#N)c(N(C)C)o1	·	2	-6	2.0	10	3%	1.8%&0.6%
O=C(NC(=S)Nc1ccc(S(=O)(=O)N2CCOCC2)cc1)c1ccccc1[N+](=O)[O-]	0	6	-23	-6.5	-2	-10%	2.7%
COC(=O)c1ccc(C(=O)NC(=S)Nc2nc3c(s2)CC(C)CC3)cc1 (stereo not drawn)	3	-4	-4	-4.4	4	-16%	2.3%
CCCCOn1c(C)c(C(=O)OCC)c2c3no[n+]([O-])c3ccc21	8	·	2	1.5	5	-6%	·
COc1ccc(OCCCC(=O)NCc2ccco2)cc1	13	10	-1	-1.8	-2	10%	?
CS(=O)(=O)N(CC(=O)NCc1ccco1)c1ccc(Cl)c(C(F)(F)F)c1	-3	1	6	-1.6	-1	-29%	-1.6%
O=C(/C=C/c1ccc(Cl)c([N+](=O)[O-])c1)Nc1ccc(N2CCCC2)c(Cl)c1	-6	-3	2	0.8	2	7%	1.8%
COc1cccc(/C=C/C(=O)NCCc2ccc(OC)c(OC)c2)c1	-5	-14	4	-3.7	5	5%	1.5%
O=C(N/N=C/c1cccc(Cl)c1)C1CCCC1	8	-6	-15	1.6	6	12%	1.6%
